Assay outcomes deposited in PubChem BioAssay by PCMD.
Calb biofilm kill = mixture kills Candida albicans biofilm cells | C. albicans biofilm persisters + clotrimazole, fluorescence viability; primary screen in compound mixtures of four per well | inhibition, % at 7.6 µM | hit rate 0.02% among 120,000 | AID 1242;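 active means inhibition above 30.3% in the primary screen of four-compound pools, then above 30% when the compound was retested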;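 further: compounds exposed to preformed 24 h biofilms for 48 h; the number belongs to the whole pool; some results filed as inactive read as strong as hits; inactives centre near 12; 0% = biofilm with clotrimazole alone and 100% = kill control; retested singly at about 60 µM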
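Test system: C. albicans CAF4-2 wild-type biofilms; buffer or medium: RPMI/MOPS medium, pH 7.0; schedule: 24 h biofilm formation, then 48 h compound exposure, 37 °C; detection: Alamar Blue fluorescence; measure: percent inhibition of biofilm viability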
* = called active by the depositor. Only part of the results is shown; rates above refer to the full screens.

The first 3 entries, ahead of the listing:
[1] O=C(c1ccccc1)N1CCN=C1c1ccccc1
  Calb biofilm kill = 5

[2] CC(=O)c1cccc(Nc2c([N+](=O)[O-])c(=O)oc3ccccc23)c1
  Calb biofilm kill = 24

[3] Cc1cccn2c(=O)c3cc(C#N)c(=NC(=O)c4cccs4)n(CCCOC(C)C)c3nc12
  Calb biofilm kill = 10

All compounds of this part, from the first entry:
[1] O=C(c1ccccc1)N1CCN=C1c1ccccc1
  Calb biofilm kill = 5

[2] CC(=O)c1cccc(Nc2c([N+](=O)[O-])c(=O)oc3ccccc23)c1
  Calb biofilm kill = 24

[3] Cc1cccn2c(=O)c3cc(C#N)c(=NC(=O)c4cccs4)n(CCCOC(C)C)c3nc12
  Calb biofilm kill = 10

[4] CCCCCN1C2=NCCN2c2ccccc21
  Calb biofilm kill = 8

[5] COc1ccccc1Cc1nc(-c2cccnc2)no1
  Calb biofilm kill = 15

[6] CSc1ccccc1C(=O)C1CCCN(S(=O)(=O)c2c(C)noc2C)C1 (centres undefined)
  Calb biofilm kill = 4

[7] CC(=O)Nc1sc(N/N=C\c2ccccc2)nc1-c1cccs1
  Calb biofilm kill = 5

[8] COc1ccc([N+](=O)[O-])cc1/C=N/NC(=O)CNC(=O)c1cccc(F)c1
  Calb biofilm kill = 21

[9] CC(C)(C)NCC(O)Cn1cc(C=O)c2ccccc21 (centres undefined)
  Calb biofilm kill = 20

[10] NC(=O)c1ccc2c(=O)n3c(-c4cc(Cl)c(N)c(Cl)c4)csc3nc2c1
  Calb biofilm kill = 11

[11] CCC(=O)Nc1ccc(C(=O)OCc2ccc(Cl)c(Cl)c2)cc1
  Calb biofilm kill = 19

[12] NC(=O)c1sc2nc3c(cc2c1N)CCC3
  Calb biofilm kill = 10

[13] COc1ccccc1C(=O)C1CCCN(C(=O)c2cc(CC(C)C)nc(C)n2)C1 (centres undefined)
  Calb biofilm kill = 14

[14] Cc1cc(C)c(-c2csc(Cc3nc(-c4cc5ccccc5oc4=O)cs3)n2)cc1C
  Calb biofilm kill = 5

[15] COc1ccccc1CNCC(=O)N1CC(=O)Nc2ccccc21
  Calb biofilm kill = 16

[16] Cc1ccc(CC(=O)NCCC(=O)O)cc1
  Calb biofilm kill = 26

[17] COc1ccc(CN(Cc2cccn2C)S(=O)(=O)c2ccc(C)cc2)cc1
  Calb biofilm kill = 18

[18] CCN(CC)CCN(Cc1cc2ccc(C)cc2[nH]c1=O)C(=O)Nc1ccc(Cl)cc1
  Calb biofilm kill = 13

Some values from the list.
CCC(=O)Nc1ccc(C(=O)OCc2ccc(Cl)c(Cl)c2)cc1 in Calb biofilm kill is entered as 19
NC(=O)c1sc2nc3c(cc2c1N)CCC3 in Calb biofilm kill is entered as 10
CC(C)(C)NCC(O)Cn1cc(C=O)c2ccccc21 (centres undefined) in Calb biofilm kill is entered as 20
CC(=O)c1cccc(Nc2c([N+](=O)[O-])c(=O)oc3ccccc23)c1 in Calb biofilm kill is entered as 24

Results in sequence from above:
Nos. 9–17 in Calb biofilm kill: 20, 11, 19, 10, 14, 5, 16, 26, 18
